SARS PLpro yeast: qHTS of Yeast-based Assay for SARS-CoV PLP; S. cerevisiae expressing SARS-CoV PLpro, growth rescue; control for the full effect not named in the record; hit rate 0.19% among 330,000; Potency, µM (series often up to 32.9 µM), inactives show at the highest dose activity, positive = growth rescue; active means well fitted rising curve with a large enough effect; inconclusive means small, poorly fitted or top-dose-only effect; inactive means no such curve, though single readings can be large or run the other way; also: 0% is about no effect; nearly all actives have a fitted effect of over 55% in size; growth read by luminescence after 48 h
2A StopGo: High Throughput Screening for Foot and Mouth Disease Virus Antivirals; human cells with a luciferase reporter of 2A StopGo recoding; control for the full effect not named in the record; Potency, µM (series often up to 57.9 µM), for the others: at the top dose signal change, negative = less light; hit rate 1.2% among 410,000; AID 1159524, 2015; active = well fitted falling curve with a large enough effect; inconclusive = small, poorly fitted or top-dose-only effect; inactive = no such curve, though single readings can be large or run the other way; tested in HEK293T cells; also: % is scaled to controls: 0 for no effect and ±100 for the full control effect; nearly all actives have a fitted effect of over 45% in size; luciferase light after 4 h
Cruzain noTriton: qHTS Assay for Promiscuous and Specific Inhibitors of Cruzain (without detergent) | hit rate 2.3% among 200,000 | Potency, µM, inactives show max response, negative = inhibition, hits mostly inhibitors | purified cruzain, Z-FR-AMC fluorescence, no detergent | Cruzipain (Trypanosoma cruzi), P25779;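 also: plate controls were enzyme without inhibitor for no effect and buffer without enzyme for full effect; nearly all actives have a fitted effect of over 40% in size; top concentration of the series not given in the record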
Target sequence (P25779 123-467 limits assumed): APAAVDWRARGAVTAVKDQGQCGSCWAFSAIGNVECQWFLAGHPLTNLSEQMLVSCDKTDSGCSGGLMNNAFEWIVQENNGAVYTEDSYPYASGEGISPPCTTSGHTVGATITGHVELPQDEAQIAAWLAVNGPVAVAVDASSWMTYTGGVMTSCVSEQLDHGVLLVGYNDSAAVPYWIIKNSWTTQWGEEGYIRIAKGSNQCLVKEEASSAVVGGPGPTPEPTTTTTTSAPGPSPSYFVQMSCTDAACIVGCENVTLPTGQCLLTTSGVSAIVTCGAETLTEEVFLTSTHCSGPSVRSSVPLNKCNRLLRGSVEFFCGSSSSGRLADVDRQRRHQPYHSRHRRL
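Detergent-free condition (0.00005% Triton X-100) in acetate buffer pH 5.5 with DTT. 1.5 nM enzyme and compound were pre-mixed 15 min, then 2 uM Z-FR-AMC substrate added; reaction progress from fluorescence change between first and third reads (60 s).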
Cruzain Triton: qHTS Assay for Promiscuous and Specific Inhibitors of Cruzain (with detergent); purified cruzain, Z-FR-AMC fluorescence, 0.01% Triton; Potency, µM, for inactives: max response, negative = inhibition, usual class: inhibitors; AID 1478, 2009; Cruzipain (Trypanosoma cruzi), P25779; hit rate 0.43% among 200,000;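 also: plate controls were neutral wells for no effect and buffer without enzyme for full effect; nearly all actives have a fitted effect of over 40% in size; top concentration of the series not given in the record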
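Compounds were screened in titration against cruzain (1.5 nM) with 0.01% Triton X-100 to counter colloidal aggregation. Activity was the AMC fluorescence increase over 60 s after adding 2 uM Z-FR-AMC at pH 5.5.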
MARV entry inh: qHTS for inhibitors of binding or entry into cells for Marburg Virus. Marburg virus pseudotyped entry inhibition, cell reporter; control for the full effect not named in the record; about a third of the inactives were read at about 46 µM. Potency, µM (highest dose often 37.8 µM), without a hit: at the top dose activity change, negative = inhibition, actives largely listed as inhibitors. hit rate 1.8% among 300,000. AID 540276, 2011; active = well fitted inhibition curve with a large enough effect; inconclusive = small, poorly fitted or top-dose-only effect, or effect the other way; inactive = flat fitted curve, though single readings scatter; tested in HEK293 cells; about a fifth of its hits are not listed in these tables; also: % is scaled to controls: 0 for no effect and ±100 for the full control effect; luciferase read-out
RE007 growth inh: qHTS Assay for Inhibitors of the HIV-1 protein Vpr. S. pombe RE007 Vpr strain, BacTiter-Glo ATP luminescence, 24 h; control for the full effect not named in the record. Potency, µM (series often up to 92.2 µM), for inactives: top-dose activity change, negative = less growth. hit rate 0.21% among 360,000; active = well fitted falling curve with a large enough effect; inconclusive = small, poorly fitted or top-dose-only effect; inactive = no such curve, though single readings can be large or run the other way;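 also: % is scaled to controls: 0 for no effect and ±100 for the full control effect; nearly all actives have a fitted effect of over 50% in size; the assay follows cell death caused by Vpr and the record does not say whether a fall means rescue or toxicity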
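Fission yeast RE007 carrying one integrated HIV-1 vpr copy, seeded at OD 0.01 in PMG+AL medium with 23 nL pinned compound. Grown 24 h at 30 degrees; viability read by BacTiter-Glo luminescence after 5 min.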
NS1 inh: qHTS Assay for Inhibitors of Influenza NS1 Protein Function; AID 2326, 2010; Potency, µM (doses to about 46.1 µM), for the others: top-dose activity, positive = more growth; S. cerevisiae slowed by influenza A NS1, growth recovery by OD600; hit rate 0.4% among 270,000; active means well fitted rising curve with a large enough effect; inconclusive means small, poorly fitted or top-dose-only effect; inactive means no such curve, though single readings can be large or run the other way; also: nearly all actives have a fitted effect of over 50% in size
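OD600 was taken as the measure of yeast growth restored by compound in an NS1-expressing S. cerevisiae strain. Cells had been washed out of glucose medium and diluted 1:100 into galactose -URA medium, pH 6.0.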
Lassa entry inh: qHTS for Inhibitors of binding or entry into cells for Lassa Virus; Lassa virus pseudotype entry inhibition, cell reporter; control for the full effect not named in the record; Potency, µM (titrated, usually from 37.9 µM), inactives show at the top dose activity change, negative = inhibition, usual class: inhibitors; hit rate 1.2% among 300,000; AID 540256, 2011; active means well fitted inhibition curve with a large enough effect; inconclusive means small, poorly fitted or top-dose-only effect, or effect the other way; inactive means flat fitted curve, though single readings scatter; tested in HEK293 cells; also: % is scaled to controls: 0 for no effect and ±100 for the full control effect; nearly all actives have a fitted effect of over 50% in size; luciferase read-out
* hit, by the source's call; ? = inconclusive; . = no result given; & = joins results of further samples; [ ] = another dose, or the depositor's remark. Unless noted, calls follow the shape of the dose curve; as a rule, active = well fitted curve in the direction sought with a large enough effect; inconclusive = small, poorly fitted or top-dose-only effect, or another doubt; inactive = no such curve, though single readings can be large; an effect the other way counts as inactive or inconclusive. Potency is read from the fitted curve at half-maximal effect.

SMILES	SARS PLpro yeast	2A StopGo	Cruzain noTriton	Cruzain Triton	MARV entry inh	RE007 growth inh	NS1 inh	Lassa entry inh
CCC(C(=O)Nc1nnc(-c2ccco2)s1)c1ccccc1 (stereo unspecified)	-3%	1%	?	-1.7%	-5%[46.1 µM]	-13%	-2%	2%
COc1ccc(S(=O)(=O)N2CCC(C(=O)O)(c3ccccc3)CC2)cc1	0%	3%	.	.	7%	6%	8%	-9%
C#CCOc1ccc(/C=C2/C(=O)NN(c3ccc(F)cc3)C2=O)cc1OC	4%	-3%	.	.	29%[46.1 µM]	-5%	3.5µM*	-20%[46.1 µM]
CC1(OC(=O)C2CCCC2)C(=O)C=C2C=C(c3ccsc3)N(C3CCCC3)C=C2C1=O (stereo unspecified)	-2%	-7%	.	.	8%&8%[14.2 µM]	-10%	-3%	.
COCCCNC(=O)c1ccc(CS(=O)(=O)c2ccccc2OC)o1	-1%	-1%	.	.	19%	-8%	4%	-19%
Cc1cccc(-c2noc(CN(C(=O)C34CC5CC(CC(C5)C3)C4)C(C)C)n2)c1	0%	-16%	-2%	-3.5%	10%	5%	-38%	17%
CC(=O)c1cn(Cc2ccccc2)c(=O)[nH]c1=O	0%	-13%	.	.	-15%[14.2 µM]	1%	.	15%
COc1ccc2c(c1)CC/C2=N\OC(=O)c1ccccc1OC	-5%	81%[activator]	.	.	.	-21%	-81%	.
Cc1ccc(SCCC(=O)NCCSCc2ccco2)cc1	-1%	-5%	.	.	-25%[46.1 µM]	4%	-6%	14%[46.1 µM]
COc1ccc(S(=O)(=O)N2CCCC(C(=O)NCCN3CCOCC3)C2)cc1C (stereo unspecified)	-1%	-22%	.	.	?	-2%	20%	?
CCSc1nnc(NC(=O)[C@@H](NC(=O)c2cc(OC)cc(OC)c2)C(C)C)s1	1%	-2%	.	.	-12%[46.1 µM]	4%	0%	2%
COc1ccc(NC(=O)C2CCCN(S(=O)(=O)c3ccc(-n4cnnn4)cc3)C2)cc1 (stereo unspecified)	2%	-4%	.	.	-18%[46.1 µM]	8%	1%	-23%[46.1 µM]
Cc1cc(C)nc(SCc2n[nH]c(=S)n2C)n1	20%	-11%	-3%	2.2%	?	-8%	-21%	12%
O=C(Nc1c(C(=O)N2CCN(c3ccccc3F)CC2)oc2ccccc12)c1ccco1	.	33%[activator]	-1%	-7.5%	.	.	.	?
Cc1nnsc1S(=O)c1ccc(Br)cc1 (stereo unspecified)	-1%	0%	.	.	.	-10%	0%	.
CC(=O)Oc1ccc(/C(C)=N/N2CCN(Cc3ccc(C)cc3)CC2)cc1	16%	-25%	.	.	6%	0%	-2%	12%
CCCN(CCC)CCCNC(=O)C1CCCN(S(=O)(=O)c2cccc3nsnc23)C1 (stereo unspecified)	.	-6%	-6%	-8.6%	-9%[46.1 µM]	.	.	19%[46.1 µM]
Cc1sc2ncn(CC(=O)NCCc3ccccc3)c(=O)c2c1C	8%	11%	-26%	6.9%	32%	8%	1%	-1%
COC(=O)c1sc(S(=O)(=O)NCc2cccs2)c(C(=O)OC)c1C	1%	78%[activator]	-1%	-2.8%	0%	1%	?	5%
CCc1nnc(NC(=O)CSc2nccn2-c2ccccc2)s1	-13%	0%	9%	-1.8%	0%	-6%	-24%	12%
CCCSc1nc2c(c(=O)[nH]c(=O)n2C)n1Cc1ccccc1	7%	-22%	.	.	.	3%	9%	.
CN1C(=O)/C(=C2/C=CC=CN2C)OC1=S	?	21%	?	?	3%	2%	-109%	-3%
CCOC(=O)c1[nH]c(=O)[nH]c1CSCCO	-4%	-14%	-5%	1.2%	?	4%	7%	5%
COc1ccc(CN2C(=O)c3ccccc3C2C(=O)NC2CCCCCC2)c(OC)c1 (stereo unspecified)	2%	-9%&22%	-4%	-0.7%	?	-5%	.	?
Cn1c(SCc2ccc([N+](=O)[O-])cc2)nc2c(c1=O)SCC2	0%	?	.	.	-23%[46.1 µM]	-7%	.	1%[46.1 µM]

In the list so far, 4 have a furan ring, fused or not:
SMILES	SARS PLpro yeast	2A StopGo	Cruzain noTriton	Cruzain Triton	MARV entry inh	RE007 growth inh	NS1 inh	Lassa entry inh
CCC(C(=O)Nc1nnc(-c2ccco2)s1)c1ccccc1 (stereo unspecified)	-3%	1%	?	-1.7%	-5%[46.1 µM]	-13%	-2%	2%
COCCCNC(=O)c1ccc(CS(=O)(=O)c2ccccc2OC)o1	-1%	-1%	.	.	19%	-8%	4%	-19%
Cc1ccc(SCCC(=O)NCCSCc2ccco2)cc1	-1%	-5%	.	.	-25%[46.1 µM]	4%	-6%	14%[46.1 µM]
O=C(Nc1c(C(=O)N2CCN(c3ccccc3F)CC2)oc2ccccc12)c1ccco1	.	33%[activator]	-1%	-7.5%	.	.	.	?

(cont.)
SMILES	SARS PLpro yeast	2A StopGo	Cruzain noTriton	Cruzain Triton	MARV entry inh	RE007 growth inh	NS1 inh	Lassa entry inh
COC(=O)c1ccc(NC(=O)c2cccc(NC(=O)c3ccccc3)c2)cc1	-4%	10%	.	.	.	-4%	7%	.
O=C(COC(=O)c1ccccc1NS(=O)(=O)c1cccs1)NCC12CC3CC(CC(C3)C1)C2	19%	?	?	-4.4%	?	-2%	26%	?
COc1ccc(N2CCN(CCC3Oc4cc([N+](=O)[O-])ccc4NC3=O)CC2)cc1 (stereo unspecified)	-1%	-1%	.	.	-2%[46.1 µM]	-7%	4%	-19%[46.1 µM]
CNC(=S)N(CCc1c(C)[nH]c2ccc(C)cc12)Cc1cc(OC)c(OC)c(OC)c1	-1%	-18%	?	-4.4%	-26%	3%	8%	-26%
Cc1nc2ncnn2c(C)c1Cc1c(Cl)cccc1Cl	-1%	-15%	7%	4.2%	26%	-7%	-7%	-6%
Cc1ccc(N2CC(C(=O)NCc3ccc(C)n3C)CC2=O)cc1 (stereo unspecified)	-1%	11%	.	.	21%[46.1 µM]	11%	.	-9%
O=C(O)C12CC3CC(C1)CC(n1ncc(NCc4ccco4)c(Cl)c1=O)(C3)C2	1%	-12%	.	.	4%[46.1 µM]	-17%	7%	?
C=CCC(CC=C)(CNC(=O)C(=O)Nc1ccc(Br)cc1)c1ccc(OC)c(OC)c1	.	?	-3%	-1.6%	-24%[46.1 µM]	.	.	-4%[46.1 µM]
Cc1c(CN(C)C(=O)c2sc3cc(Cl)ccc3c2Cl)cnn1C	-4%	0%	?	-0.7%	?	0%	-144%	-22%
Cc1nc(N)[nH]c(=O)c1CCCNc1ccc([N+](=O)[O-])cc1	.	50%[activator]	.	.	?	3%	.	?
CCCN(CC(=O)Nc1ccc(C(N)=O)cc1)CC(=O)Nc1ccc(Cl)cc1Cl	1%	-10%	?	-2.6%	2%	9%	3%	-10%
O/N=C/c1cc(Br)ccc1OCc1cccc(F)c1	-17%	10%	-23%	-8.1%	?	?	-49%	21%
Cc1nc(-c2nnc(-c3ccccc3)o2)c(C(F)(F)F)o1	0%	37%[activator]	.	.	?	-20%	-8%	?
CCCc1nn2c(C)c(-c3ccccc3)nc2s1	.	6%	13%	8.0%	-24%[46.1 µM]	.	.	?
NC(=O)N[C@@H](Cc1c[nH]c2ccccc12)C(=O)OCC(=O)N1CCCCC1	-1%	12%	.	.	-4%[46.1 µM]	-4%	.	14%
Cc1ccc(-c2nc(NC(=O)CSc3nc(C)nc4sc5c(c34)CCCC5)ns2)cc1	.	5%	19%	-1.0%	19%[46.1 µM]	.	.	-18%[46.1 µM]
CCN(C)c1ccc(/C=N\n2nnnc2N)cc1	?	24%	-2%	2.1%	?	-13%	-8%	-2%
Cc1ccsc1-c1nc(CN2CCCC2c2ccc(F)cc2)c(C)o1 (stereo unspecified)	-2%	8%	.	.	?	10%	-1%	3%[46.1 µM]
Cc1ccccc1CN1CCNC(=O)C1CC(=O)O (stereo unspecified)	2%	-19%	-5%	-2.3%	.	-9%	0%	.
CC(C)N(CCC#N)C(=O)Nc1ccc2c(c1)CCO2	0%	-16%	.	.	19%	8%	2%	10%
COc1ccc(CNC(=O)c2c(O)nc3c(C)cccn3c2=O)cc1	.	-17%	-12%	0.0%	13%[46.1 µM]	.	.	.
COc1ccc(/C=N/NC(=O)CNC(=O)c2ccc3c(c2)OCCO3)cc1OC	?	0%	3%	-1.3%	-14%	4%	-2%	-12%
CCS(=O)(=O)c1nc(S(=O)(=O)c2ccc(C)cc2)c(NCCCn2ccnc2)s1	3%	6%	.	.	.	0%	-22%	.
CN(Cc1ccccc1)C(=O)CCC(=O)N(C)Cc1ccccc1	-2%	24%	3%	5.8%	-17%	23%	-12%	6%
CC1CC(C)(C)NC(=S)N1CCC(=O)N1CCc2ccccc2C1 (stereo unspecified)	5%	-4%	.	.	6%	7%	.	2%
COc1ccc(S(=O)(=O)N(CC(=O)Nc2cc(C)on2)Cc2ccccc2)cc1	26%	-8%	-9%	-1.6%	6%	-5%	1%	-21%

Profiles, quoted from the list. Order of screens: SARS PLpro yeast | 2A StopGo | Cruzain noTriton | Cruzain Triton | MARV entry inh | RE007 growth inh | NS1 inh | Lassa entry inh
`Cc1nc(-c2nnc(-c3ccccc3)o2)c(C(F)(F)F)o1` is listed with 0% | 37%[activator] | . | . | ? | -20% | -8% | ?
`Cc1nc(N)[nH]c(=O)c1CCCNc1ccc([N+](=O)[O-])cc1` is listed with . | 50%[activator] | . | . | ? | 3% | . | ?
